A1 inh: inhibitors of A1; MEF A1-2A-BIM cells, caspase-Glo luminescence, 3 h; percent of clofoctol signal, DMSO as zero; caspase activation, % (no concentration beside the values); 0.51% of 21,000 active; AID 2241;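 active = most replicate scores above 10, or exactly half above 10 with mean activity above 10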;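 also: effector caspase 3 and 7 activity cleaving a DEVD luciferin substrate; 50 nL library stock added to about 30 µL; numbers are from one replicate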
BJeLR viab HTS: BJeLR cell viability reduction; BJeLR fibroblasts viability, CellTiterGlo ATP luminescence, 48 h; HRASV12, hTERT and SV40 LT/ST transformed; viability loss activity score, % (test concentration not listed); 0.64% of 30,000 active; in the data active = viability loss activity score above about 50%; about a fifth of its hits are not listed in these tables;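 also: higher score means fewer live cells and less ATP luminescence; stock transfer was 50 or 100 nL into about 30 µL; 0% = vehicle wells and 100% = a reference killing control; one replicate is shown; the record names a cut of 85%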
* hit, by the source's call; · = not tested or not shown. Some of the compounds tested; count on the stated rates, not on these rows.

Compound | A1 inh | BJeLR viab HTS
CC(C)NC(=O)Nc1ccc2c(c1)C(=O)N([C@@H](C)CO)C[C@H](C)[C@H](CN(C)C)O2 | 0.7 | 0.3
C[C@H]1CN([C@@H](C)CO)C(=O)c2cc(NC(=O)Nc3ccccc3)ccc2O[C@H]1CN(C)C(=O)Nc1ccc2c(c1)OCO2 | -0.4 | -4.2
COC(=O)CC1=CC(C)(CC(=O)OC)C(C#N)(C#N)C(N)=C1C#N (centres undefined) | 0.7 | 2.2
C[C@@H]1CN([C@H](C)CO)C(=O)c2cccc(NC(=O)C3CCOCC3)c2O[C@@H]1CN(C)C(=O)NC1CCCCC1 | · | -1.3
CCn1cc(/C=C(\NC(=O)c2ccccc2)C(=O)N2CCCC2)c2ccccc21 | 0.7 | 2.0
COC(=O)C1=COC(O[C@@H]2O[C@H](CO)[C@@H](O)[C@H](O)[C@H]2O)[C@H]2[C@@H]1[C@H](OC(=O)CCc1ccc(O)cc1)C[C@]2(C)O (some centres undefined) | 1.5 | -6.4
CNc1cc(NS(=O)(=O)c2ccc(N)cc2)nc(NC)n1 | 0.3 | -8.4
COc1ccc(NC(=O)c2ccc(-c3ccc(-c4noc(C)n4)cc3C)cc2)cc1OCCN(C)C | 1.6 | ·
C[C@H]1CN([C@@H](C)CO)C(=O)c2cccc(NC(=O)Nc3ccccc3)c2O[C@@H]1CN(C)C(=O)Nc1ccccc1 | · | 1.4
Cc1nc2c(=O)n(-c3cc(C(F)(F)F)ccc3Cl)nc(C)c2s1 | -0.9 | -4.6
CC(C)NC(=O)Nc1ccc2c(c1)C(=O)N([C@H](C)CO)C[C@H](C)[C@@H](CN(C)C(=O)Nc1ccc(F)cc1)O2 | 0.8 | 1.2
C[C@H]1CN([C@@H](C)CO)C(=O)c2cc(NC(=O)NC3CCCCC3)ccc2O[C@@H]1CN(C)Cc1ccc2c(c1)OCO2 | -0.4 | -9.4
CC1CCCC(C)N1C(=O)C1CC(c2ccc(F)cc2)=NO1 (centres undefined) | · | 1.9
Cc1ccc(NS(=O)(=O)c2ccc3[nH]c(=O)sc3c2)cc1F | · | 6.4
C[C@@H]1CN([C@H](C)CO)C(=O)c2cccc(NS(=O)(=O)c3ccc(Cl)cc3)c2O[C@@H]1CN(C)Cc1ccc(-c2ccccc2)cc1 | · | 0.9
Cc1noc(C)c1NC(=O)Nc1ccc2c(c1)C(=O)N([C@@H](C)CO)C[C@H](C)[C@H](CN(C)Cc1ccc(Oc3ccccc3)cc1)O2 | 1.0 | -1.6
CCC(CC)c1nc(Nc2ccccc2)c2ccccc2n1 | · | 11
CCN(C(=O)c1cnccc1C(F)(F)F)c1nc2cc(Cl)ccc2s1 | -3.1 | -1.9
CCC(C(=O)Nc1cccc(C)c1C)n1nc(C)c2sc3ccccc3c2c1=O (centres undefined) | -0.8 | -1.3
Cc1ccc(S(=O)(=O)Nc2cccc3c2O[C@H](CN(C)Cc2ccc(Oc4ccccc4)cc2)[C@@H](C)CN([C@@H](C)CO)C3=O)cc1 | · | -1.3
CN(C)C(=S)N(C#N)c1nc(N(C)C)nc(N(C)C)n1 | · | -4.7
CC(C)NC(=O)N(C)C[C@H]1Oc2c(NC(=O)Nc3ccccc3)cccc2C(=O)N([C@@H](C)CO)C[C@H]1C | · | -2.1
C[C@@H]1CN([C@H](C)CO)C(=O)c2cccc(NC(=O)Nc3ccccc3)c2O[C@@H]1CN(C)C | · | -1.1
c1ccc2cc3c(Nc4ccc(N5CCOCC5)cc4)ccnc3cc2c1 | -0.5 | 14
C[C@H]1CN([C@@H](C)CO)C(=O)c2cccc(NC(=O)C3CCCCC3)c2O[C@@H]1CN(C)S(=O)(=O)c1ccccc1 | · | -2.6
COc1ccc(S(=O)(=O)Nc2ccc3c(c2)C(=O)N([C@H](C)CO)C[C@@H](C)[C@@H](CN(C)Cc2ccc(C(=O)Nc4ccccc4N)cc2)O3)cc1 | · | 8.6
Oc1oc(-c2ccccc2)nc1/C=N/c1ccccn1 | · | -4.9
CCCC(=O)Oc1ccc2oc(-c3ccc(OC)cc3)cc(=O)c2c1 | -5.8 | 1.3
C[C@H](CO)N1C[C@H](C)[C@H](CN(C)S(=O)(=O)c2ccc(F)cc2)Oc2ccc(NC(=O)CCN3CCOCC3)cc2C1=O | 1.0 | 2.5
C[C@@H]1CN([C@@H](C)CO)C(=O)c2cccc(N(C)C)c2O[C@H]1CN(C)S(=O)(=O)c1ccc(F)cc1 | · | -5.1
Fc1ccc(C2c3cccn3CCN2C(=S)Nc2cccc(F)c2)cc1 (centres undefined) | 0.7 | -1.2
COc1ccc2[nH]c3c(=O)n(CC(=O)N4CCN(c5ccc(F)cc5)CC4)c(=S)[nH]c3c2c1 | 4.3 | -1.9
Cc1nnsc1C(=O)Oc1ccc(-c2n[nH]nc2C#N)cc1 | 1.0 | 0.7
CN(C)C(=S)NCCC1=CCCCC1 | · | -1.3
CC1CCCC(Nc2c(-c3ccc(Cl)cc3)nc3c(C#N)c[nH]n23)C1C (centres undefined) | -0.6 | 5.7
Cc1ccc(S(=O)(=O)Nc2cccc3c2O[C@@H](CN(C)S(=O)(=O)c2ccc(Cl)cc2)[C@H](C)CN([C@@H](C)CO)C3=O)cc1 | · | 9.3
CC(C)NC(=O)Nc1ccc2c(c1)C(=O)N([C@@H](C)CO)C[C@@H](C)[C@H](CN(C)S(=O)(=O)c1ccccc1)O2 | 0.0 | 2.1
C[C@@H]1CN([C@@H](C)CO)C(=O)c2cc(NS(C)(=O)=O)ccc2O[C@@H]1CN(C)S(=O)(=O)c1cccs1 | 0.7 | -4.8
Clc1cc(Cl)c2nc(Oc3cccc(N4CCOCC4)c3)sc2c1 | -0.1 | 0.4
CC1CCCCN1C(=O)Cn1ncc2c1-c1ccccc1OC2 (centres undefined) | · | 3.0
CC(C)(C)c1ccc(SC(=O)c2ccc(OCC(F)(F)F)nc2)cc1 | 0.5 | 13
C[C@H]1CN([C@@H](C)CO)C(=O)c2cc(NC(=O)CCCCCC(=O)Nc3ccccc3N)ccc2O[C@@H]1CN(C)C(=O)Nc1ccccc1 | · | -5.9
CC(C)NC(=O)N(C)C[C@@H]1Oc2c(NS(=O)(=O)c3ccc(Cl)cc3)cccc2C(=O)N([C@H](C)CO)C[C@H]1C | · | -1.7
COc1ccc(S(=O)(=O)N(C)C[C@H]2Oc3c(NS(=O)(=O)c4ccc(C)cc4)cccc3C(=O)N([C@H](C)CO)C[C@@H]2C)cc1 | · | 4.0
Oc1ccc(CN2CCCC2)c2cccnc12 | 0.4 | -4.7
C[C@H]1CN([C@@H](C)CO)C(=O)c2cc(NS(C)(=O)=O)ccc2O[C@@H]1CN(C)S(=O)(=O)c1ccccc1 | 0.9 | 6.9
CCOC(=O)c1cnc2ccc(OCC)cc2c1N(C)Cc1ccccc1 | -0.5 | 7.6
C[C@H]1CN([C@@H](C)CO)C(=O)c2cccc(NC(=O)C3CCOCC3)c2O[C@H]1CN(C)C(=O)Nc1ccc(C(F)(F)F)cc1 | · | 2.6
COc1cccc(CNC(C)(C)CO)c1OCc1ccc(Cl)cc1 | · | 2.4
CCn1c(=O)c2cc(C(=O)N(C)Cc3ccco3)sc2c2ccccc21 | · | -1.8

New compounds follow.
Compound | A1 inh | BJeLR viab HTS
COc1ccc(S(=O)(=O)Nc2ccc3c(c2)C(=O)N([C@@H](C)CO)C[C@H](C)[C@H](CN(C)Cc2ccncc2)O3)cc1 | 0.5 | 5.6
C[C@@H]1CN([C@@H](C)CO)C(=O)c2cc(NC(=O)Nc3ccc(C(F)(F)F)cc3)ccc2O[C@H]1CN(C)Cc1ccc(C(=O)O)cc1 | -0.4 | 3.6
Cc1cc(O)c2c(c1)C(=O)OC2c1c(O)cccc1O (centres undefined) | 0.2 | -5.1
C=CCN1C(=O)N(c2ccccc2)C(=O)C1CC(=O)Nc1ccccc1 (centres undefined) | · | 3.6
COc1cc2c(cc1OC)C1CC(=O)C(CC(C)C)CN1CC2 (centres undefined) | 0.3 | 4.4
COc1c(C)c(OCC=C(C)C)cc(CO)c1CO | -0.3 | -1.0
Cc1cccc(N=C2NC(=O)/C(=C3/C(=O)N(CC(=O)O)c4ccccc43)S2)c1C | 0.7 | -1.3
C[C@H]1CN([C@@H](C)CO)C(=O)c2cccc(NC(=O)c3ccncc3)c2O[C@@H]1CN(C)S(=O)(=O)c1cn(C)cn1 | · | -3.2
C[C@H](CO)N1C[C@H](C)[C@H](CN(C)Cc2ccc(C(F)(F)F)cc2)Oc2c(NS(=O)(=O)c3cn(C)cn3)cccc2C1=O | · | -2.5
Cc1cc(N(Cc2cccc(Cl)c2Cl)C(=O)c2ccccc2)no1 | 0.3 | 0.9
CC(C)(C)NC(=S)N1CCn2cccc2C1c1ccccc1F (centres undefined) | -0.1 | -3.9
CCN(c1cccc(C)c1)C(C(=O)NC1CCCC1)c1ccccc1 (centres undefined) | · | -1.8
C=C1CCC(C2CC(=O)OC2=O)C(=O)CCC2C1CC2(C)C (centres undefined) | 0.0 | 2.0
CCc1nnc(NC(=O)c2cc(S(=O)(=O)N3CCc4ccccc43)cn2C)s1 | 1.3 | -2.4
Cc1ccccc1C(=O)OCC1CCCN2CCCCC12 (centres undefined) | 0.8 | 0.8
Cc1noc(C)c1NC(=O)Nc1cccc2c1O[C@H](CN(C)C)[C@@H](C)CN([C@H](C)CO)C2=O | · | -1.5
Cc1noc(C)c1NC(=O)Nc1ccc2c(c1)C(=O)N([C@H](C)CO)C[C@@H](C)[C@@H](CN(C)S(=O)(=O)c1cn(C)cn1)O2 | -0.1 | 2.0
O=S(=O)(c1cccc(-c2nnc(-c3ccccc3)o2)c1)N1CCCC1 | -1.5 | 0.6
CC(=O)Oc1ccc2cc(-c3nc4ccccc4n3C)c(=O)oc2c1 | · | -3.7
COc1ccc(S(=O)(=O)Nc2cccc3c2O[C@H](CN(C)Cc2ccc(Oc4ccccc4)cc2)[C@@H](C)CN([C@H](C)CO)C3=O)cc1 | · | 3.4
Cc1noc(C)c1CSc1n[nH]c(=O)n1Cc1ccco1 | 0.6 | -0.4
O=C(/C=C/c1ccc(Cl)cc1)Nc1cccc(Cl)c1 | -6.0 | 3.6
C[C@@H]1CN([C@H](C)CO)C(=O)c2cccc(NS(=O)(=O)c3ccc(F)cc3)c2O[C@H]1CN(C)C(=O)Nc1ccc(C(F)(F)F)cc1 | · | -0.5
C[C@@H]1CN([C@@H](C)CO)C(=O)c2cccc(N(C)C)c2O[C@@H]1CN(C)Cc1ccc(C(=O)O)cc1 | · | -1.2
COc1ccc(CN(C)C[C@@H]2Oc3c(NS(=O)(=O)c4ccc(Cl)cc4)cccc3C(=O)N([C@@H](C)CO)C[C@H]2C)cc1 | · | 4.1
CC(C)NC(=O)N(C)C[C@H]1Oc2c(NS(=O)(=O)c3ccc(F)cc3)cccc2C(=O)N([C@@H](C)CO)C[C@H]1C | · | -2.2
Cc1ccc(OCC(O)CN2C(C)CCCC2C)c(C)c1 (centres undefined) | 1.6 | 5.6
C[C@H](CO)N1C[C@H](C)[C@@H](CN(C)S(=O)(=O)c2cccs2)Oc2c(NC(=O)C3CCCCC3)cccc2C1=O | · | -1.5
C[C@@H]1CN([C@@H](C)CO)C(=O)c2cc(NC(=O)Cc3cn(C)c4ccccc34)ccc2O[C@H]1CN(C)Cc1ccc(Oc2ccccc2)cc1 | 0.2 | -3.6
CC1=C(C#N)C(C(F)(F)F)(C(F)(F)F)N=C(Cc2ccccc2)N1 | -0.5 | 4.9
CCC[C@@H]1C[C@@H](C(=O)N[C@H]([C@H]2O[C@H](SC)[C@H](O)[C@@H](O)[C@H]2O)[C@H](C)O)N(C)C1 | -0.3 | 1.8
CC1=CCC2C(=O)N(c3ccc(C4CCCCC4)cc3)C(=O)C2C1 (centres undefined) | 0.1 | -3.8
CCCNC(=O)CC1Oc2ccccc2NC1=O (centres undefined) | 0.1 | 4.5
CCc1nc(SCC(=O)Nc2cc(C)on2)n[nH]1 | -0.1 | 0.6
Cc1noc(C)c1NC(=O)Nc1ccc2c(c1)C(=O)N([C@H](C)CO)C[C@H](C)[C@@H](CN(C)S(=O)(=O)c1ccccc1)O2 | 0.0 | -0.9
Cc1ccc(C)c(CSC2=NCCN2C(=O)c2ccc(S(=O)(=O)N3CCOCC3)cc2)c1 | · | -2.1
CC(=O)N/C(=C/c1ccccc1Br)C(=O)NCc1ccc(C)cc1 | -0.1 | 1.0
C[C@H](CO)N1C[C@H](C)[C@@H](CN(C)Cc2ccc(-c3ccccc3)cc2)Oc2ccc(NC(=O)Nc3ccc(C(F)(F)F)cc3)cc2C1=O | 0.4 | 2.7
O=C(CCN1C(=O)COc2ccccc21)NC1CCCCCC1 | -0.2 | -2.4
CCC1(COC(NC(=O)c2ccc(Cl)cc2Cl)(C(F)(F)F)C(F)(F)F)COC1 | 0.2 | 0.4
CC1(C)CC(=O)C(C=NCC2CCCO2)=C(O)C1 (centres undefined) | 0.8 | 0.3

Quoted at random: three compounds from above
Compound | A1 inh | BJeLR viab HTS
Cc1ccc(OCC(O)CN2C(C)CCCC2C)c(C)c1 (centres undefined) | 1.6 | 5.6
CCC1(COC(NC(=O)c2ccc(Cl)cc2Cl)(C(F)(F)F)C(F)(F)F)COC1 | 0.2 | 0.4
C[C@H](CO)N1C[C@H](C)[C@@H](CN(C)Cc2ccc(-c3ccccc3)cc2)Oc2ccc(NC(=O)Nc3ccc(C(F)(F)F)cc3)cc2C1=O | 0.4 | 2.7

Molecules from the list above with a tert-butyl group (2):
Compound | A1 inh | BJeLR viab HTS
CC(C)(C)c1ccc(SC(=O)c2ccc(OCC(F)(F)F)nc2)cc1 | 0.5 | 13
CC(C)(C)NC(=S)N1CCn2cccc2C1c1ccccc1F (centres undefined) | -0.1 | -3.9
